VACV mCherry inh: vaccinia inhibition (mCherry reporter). Vaccinia virus mCherry reporter infection, fluorescence; about a quarter of the inactives have no number. Potency, µM (doses to about 36.5 µM), without a hit: at the highest dose activity change, negative = inhibition, hits mostly inhibitors. 0.63% of 310,000 active. AID 720579; active = well fitted inhibition curve with a large enough effect; inconclusive = small, poorly fitted or top-dose-only effect; inactive = no such curve, though single readings can be large or run the other way; tested in A549 cells; also: nearly all actives have a fitted effect of over 35% in size; inactives centre near -10
VACV Venus inh: vaccinia inhibition (Venus reporter). Vaccinia virus Venus reporter expression, fluorescence. Potency, µM (doses to about 36.5 µM), without a hit: at the highest dose activity change, negative = inhibition, actives largely listed as inhibitors. 0.46% of 330,000 active. AID 720580; active means well fitted inhibition curve with a large enough effect; inconclusive means small, poorly fitted or top-dose-only effect; inactive means no such curve, though single readings can be large or run the other way; tested in A549 cells; also: nearly all actives have a fitted effect of over 30% in size; inactives centre near -10
* hit, by the source's call; i = inactive; u = inconclusive; x = not tested or not shown; & = joins results of further samples; [ ] = another dose, or the depositor's remark. % is scaled to controls: 0 for no effect and ±100 for the full control effect; potency is read from the fitted curve at half-maximal effect.

The first two entries (preview)
SMILES,VACV mCherry inh,VACV Venus inh
Cc1ccc(-n2nc(C)c3c(C)c(CCC(=O)NCc4ccccc4)c(C)nc32)cc1,i,-25%
CS(=O)(=O)Nc1cccc(NC(=O)C2Cc3c(-c4ccccc4)ccnc3O2)c1 (stereo not drawn),-30%,u

The listing (from the top)
SMILES,VACV mCherry inh,VACV Venus inh
Cc1ccc(-n2nc(C)c3c(C)c(CCC(=O)NCc4ccccc4)c(C)nc32)cc1,i,-25%
CS(=O)(=O)Nc1cccc(NC(=O)C2Cc3c(-c4ccccc4)ccnc3O2)c1 (stereo not drawn),-30%,u
O=c1nccc(NCc2ccco2)[nH]1,-6%,-14%
CN(c1ccccc1)S(=O)(=O)c1ccc(NC(=S)NC(=O)c2ccccc2)cc1,x,-17%
COc1ccc(-c2nn(-c3ccccc3)cc2/C=N/Nc2ccc(S(N)(=O)=O)cc2[N+](=O)[O-])cc1OC,u,-29%
CC1CCN(C(=O)Cn2c(=O)c3cccn3c3ccccc32)CC1,-6%,-3%
O=c1c2ccccc2nc(-c2ccccc2)n1-c1ccccc1O,-8%,-7%
O=C(COc1ncnc2scc(-c3ccc(Cl)cc3)c12)NCc1ccco1,x,-14%
Cc1nc2ncnn2c(C)c1CCC(=O)N1CCCCC1,-13%,-18%
Cc1ccnc(NS(=O)(=O)c2ccccc2)n1,i,-11%
COc1ccc(NC(=O)COC(=O)C2CCCCC2)c([N+](=O)[O-])c1,i,-18%
CC(C)C(C(=O)N1CCN(Cc2ccccc2)CC1)c1ccccc1 (stereo not drawn),-17%,-5%
CC(C)[C@H]1COCCS(=O)(=O)N1Cc1ccccc1-c1cccc2c1oc1ccccc12,u,-29%
Cc1cccc(NC(=S)NNc2ncc(C(F)(F)F)cc2Cl)c1,-27%,u
CCOc1ccc(N2CC(C(=O)N3CCCC3)CC2=O)cc1 (stereo not drawn),14%,19%
CCn1cc(Br)c(C(=O)N2CCN(c3ccccc3)CC2)n1,-13%,0%
CC(C)N1C(=O)/C(=C\c2nc3ccccc3c(=O)n2-c2ccccc2)c2ccccc21,11µM*,u
COc1ccc(/C=N\NC(=O)c2cccc(F)c2)cc1COc1ccccc1,-9%,-37%
Cc1nc2ccc(NC(=O)c3cccc(S(=O)(=O)N(C)c4ccccc4)c3)cc2s1,u,u
CCCCCOc1ccc(NC2=CC(=O)CCC2)cc1,-7%,-25%

Three records picked at random from the list so far, as already listed:
SMILES,VACV mCherry inh,VACV Venus inh
Cc1cccc(NC(=S)NNc2ncc(C(F)(F)F)cc2Cl)c1,-27%,u
CCOc1ccc(N2CC(C(=O)N3CCCC3)CC2=O)cc1 (stereo not drawn),14%,19%
Cc1nc2ccc(NC(=O)c3cccc(S(=O)(=O)N(C)c4ccccc4)c3)cc2s1,u,u

Other entries
SMILES,VACV mCherry inh,VACV Venus inh
Cc1ccc2nsnc2c1S(=O)(=O)Nc1cccc2nsnc12,x,0%
Cc1cccc2cc(CN(Cc3ccccc3)C(=O)c3cccc(F)c3)c(Cl)nc12,-24%,-10%
CCC(C)C(=O)Nc1cc([N+](=O)[O-])ccc1Cl (stereo not drawn),-11%,-9%
Cc1ccccc1CN1CCN(C(=O)[C@H]2O[C@@H](n3ccc(=O)[nH]c3=O)[C@H](O)[C@@H]2O)CC1,9%,-2%
O=C(CNC(=O)c1cccs1)N=Nc1c(O)[nH]c2ccc(Br)cc12,-26%,-23%
CCCCNC(=O)/C=C/c1ccc(S(=O)(=O)Nc2ccc(OC)cc2)cc1,-14%,-10%
O=C(Nc1cc(C(F)(F)F)ccc1F)C1CCC1,x,-11%
CC(C)c1ccc(C2(C)NC(=O)N(C(C)C(=O)Nc3ccc(N4CCOCC4)cc3)C2=O)cc1 (stereo not drawn),u,-11%
O=C(c1cccc(S(=O)(=O)N2CCCC2)c1)c1nnc(-c2ccncc2)o1,i,1%
CCN(CC)S(=O)(=O)c1ccc(NC=C(C#N)C#N)cc1,-19%,-13%
Cc1n[nH]c(=S)n1-c1ccc(Cl)cc1,-1%,-12%
CC(C)(C)OC(=O)[C@H](Cc1ccccc1)NC(=O)c1nc[nH]c1C(=O)N1CCN(C(=O)OC(C)(C)C)CC1,u,7%
CCC(=NCCc1c(C)[nH]c2ccccc12)C1=C(O)CC(c2ccccc2)CC1=O (stereo not drawn),-17%,u
COc1ccc(/C=N/OCC(=O)N2CCCC2)c(OC)c1,i,0%
CC(C)Nc1ncnc2[nH]ncc12,-14%,-1%
CCOC(=O)N1CCN(C(=S)Nc2ccc(C)cc2C)CC1,i,2%
O=C(Nc1ccc(OC(F)(F)F)cc1)C1CCCN(S(=O)(=O)c2ccc(Br)s2)C1 (stereo not drawn),-13%,-10%
Cc1c(CCCN)c2ccccc2n1Cc1ccccc1,u,-26%
CCN(Cc1ccccc1)C(=O)CN1C(=O)COc2ccc(S(=O)(=O)NC3CCCC3)cc21,-16%&-5%,-8%&-11%
C=CCc1cc(C=Nc2ccc(N3CCOCC3)cc2)cc(OCC)c1O,i,16%
CN(C)c1ccc(C=C2C=CC=C2)cc1,-7%&42%,-1%&-4%
O=C(CSc1nc2ncc(Br)cc2[nH]1)c1cccc([N+](=O)[O-])c1,-13%,-8%
C/C(=N\NC(=O)COc1ccccc1[N+](=O)[O-])c1cccs1,-13%,2%
Cc1ccc(S(=O)(=O)N(CCCO)CC(O)CON=C2c3ccccc3-c3ccccc32)cc1 (stereo not drawn),-22%,-8%
CC1=C(C)CC(C(=O)NNC(=O)c2csc3c2CCC(C(C)(C)C)C3)C(C(=O)O)C1 (stereo not drawn),i,-10%
CCCNC(=O)c1ccc2c(c1)nc(C)n2-c1cccc(C)c1,15%&-10%,-9%&-7%
O=C(Cc1ccccc1)Oc1ccc([N+](=O)[O-])cc1,-10%,-9%
CC(=O)c1ccccc1NC(=O)c1ccc(OCc2c(C)noc2C)cc1,i,-2%
O=C(c1cc(Cl)ccc1Cl)N1CCOCC1,-22%,-7%
CCCCCCCCOC(=O)C(NC(=O)CCC(=O)Nc1ccc(S(N)(=O)=O)cc1)C(O)c1ccccc1 (stereo not drawn),x,-19%
CC(=O)CCn1cnc([N+](=O)[O-])n1,-16%,-5%
Cc1ccc(N=C2NC(=O)/C(=C\c3ccco3)S2)cc1,-16%,-4%
Cc1c(Cl)cccc1NC(=O)Cn1cc2c(n1)CCCC2,-6%,-12%
CCOC(=O)c1c(NC(=O)CSc2nnc3c(Cl)cc(Cl)cn23)sc2c1CCC2,-13%,-15%
COc1ccc(NC(=O)C2CC(=O)N(c3cc(C)ccc3C)C2)cc1 (stereo not drawn),x,-3%
CCOP(=O)(OCC)C(NC(=O)Nc1ccc(C)cc1)C(N)=O (stereo not drawn),-14%,21%
O=C(Nc1ccccc1F)C(Cc1ccccc1)n1cccc1 (stereo not drawn),-12%,-12%
COc1ccc(NC(=O)CCc2nc3c(C)nn(-c4ccc(C)cc4)c3n(C)c2=O)c(OC)c1,-5%,-7%
CCCCN(C)CCNC(=O)C(NC(=O)C1CCC(C)CC1)C(C)C (stereo not drawn),u,-20%
CCC(C)c1ccc2oc(-c3ccc(NC(=O)c4cc5ccccc5o4)cc3)nc2c1 (stereo not drawn),-8%,-6%
O=C(Nc1ccccc1F)Oc1cccc(OC(=O)Nc2ccccc2F)c1,i,-8%
CCN(CC(=O)Nc1c(F)cccc1F)C(=O)c1cc([N+](=O)[O-])ccc1N1CCOCC1,-12%,-1%
O=C(CCNC(=O)OCC1c2ccccc2-c2ccccc21)NOCc1ccccc1,i,0%
Cc1c(Cl)cccc1S(=O)(=O)Nc1ccnn1C,i[7.34 µM],-6%[7.34 µM]
Cc1nc2cc(C(F)(F)F)ccc2n1C,-11%,-2%
COc1ccc(-n2cc(C(=O)NCc3ccc(Cl)cc3)c3ccccc3c2=O)cc1,-19%,-16%
CCC(C)N(C(=O)COc1ccc(Br)cc1C=O)C1CCS(=O)(=O)C1 (stereo not drawn),-11%,-5%
CC(=O)Nc1cccc(-c2ccnc3c2CC(C)(C(=O)Nc2cccc(OC(F)(F)F)c2)O3)c1 (stereo not drawn),u,-27%
Cc1ccc(S(=O)(=O)N(C)C)cc1NC(=O)CCNC(=O)c1ccco1,-6%,25%
O=C(Nc1cc(Cl)ccc1Cl)c1cc(S(=O)(=O)NCCc2ccccc2)ccc1F,-6%,-2%

Remaining list, next part
SMILES,VACV mCherry inh,VACV Venus inh
CC(=O)NC(N(C#N)c1nc(Cl)nc(N(C)C)n1)C(Cl)(Cl)Cl (stereo not drawn),-18%,-7%
O=C1CCCN1Cc1ncnn1-c1ccccc1,x,-4%
COC(=O)C1=C(c2cccc(OCc3ccccc3)c2)C[C@@H]2CC[C@H]1N2C(=O)NCc1ccccc1OC,u,u
Cc1c(NC(=O)c2ccc(Cl)s2)c(=O)n(-c2ccccc2)n1C,-5%,4%
COc1ccc(Cl)cc1NC(=O)COC(=O)C1=NNC(=O)CC1,i,-17%
CCn1c(CNC(=O)c2ccco2)nnc1SCC(=O)c1ccc(F)cc1,i,-9%
Nc1sc(-c2ccccc2)cc1C(=O)NCCc1ccc(Cl)cc1,u,-14%
O=C(Cn1ccnc1[N+](=O)[O-])NCc1ccccc1,-14%,-11%
COc1ccc2[nH]c3c(c2c1)CCN1C(=O)C(CC(=O)NCCc2ccccn2)C[C@H](C(=O)N(C(C)C)C(C)C)[C@@]31C (stereo partly drawn),i,-20%
O=C1NC(=S)S/C1=C\c1cc(Cl)cc(Cl)c1O,464%[activator],i
C=CCNC(=S)N1Cc2ccccc2-n2nncc2C1,-12%,-7%
Cc1cccc(N2CCN(S(=O)(=O)c3ccc4c(c3)C(C)(C)C(=O)N4C)CC2C)c1 (stereo not drawn),-20%,-16%
CCC(=O)N1CCN(c2cc(C)ccc2C)CC1,-16%,-7%
CCCN(Cc1cccs1)C(=O)Nc1ccc(Br)cc1F,-17%,2%
C=CCc1cc(/C=N\NC(=O)CSc2nnc(CCCc3ccc(OC)c(C)c3)o2)cc(OC)c1O,x,-24%
Cn1cc(Cl)c(-c2n[nH]c(=S)n2-c2ccc(F)cc2)n1,-12%,-2%
CCOc1ccccc1NC(=O)c1nnn(CC(=O)Nc2ccccc2CC)c1N,-15%,-4%
CCOc1ccc(N(CC(=O)NCC2CCCO2)S(=O)(=O)c2ccc(OC)c(OC)c2)cc1 (stereo not drawn),x,-19%
CCOC(=O)C1=C[C@@H](c2ccccc2)N(S(=O)(=O)c2ccc(C)cc2)[C@H]1c1ccc(OC)cc1,i,-8%
c1ccc2c(c1)[nH]c1ccccc12,-6%,-13%
O=C(CCl)N(c1ccc(Cl)cc1)c1c[nH]c2ccccc12,u,13µM*
c1cncc(CNc2nc(-c3ccc4c(c3)OCO4)nc3ccccc23)c1,i,0%
CC(=O)OC1CC[C@@]2(C)C3CC[C@@]4(C)C(CC5O[C@@]6(CCC(C)CO6)C(C)C54)C3CC[C@@H]2C1 (stereo partly drawn),-6%,-7%
COc1ccc(N2CCN(c3nc(NCCO)nc(N4CCOCC4)n3)CC2)cc1,-8%,-2%
CCOc1ccc(Nc2nc(Cc3nnc(SCC(=O)N(CC)CC)n3C)cs2)cc1,-21%,-17%
C/C(=N\NC(=O)c1ccc(O)cc1)c1cccc(NC(=O)c2ccc(Cl)cc2)c1,i,-8%
O=C(N/N=C/c1sc(=O)[nH]c1-[n+]1ccccc1)c1ccccc1[O-],-5%,-11%
Cc1nc2ccccc2c(=O)n1CC(=O)N1CCOCC1,-10%,4%
COc1ccc(-n2nnc3c(SCC(=O)NCc4ccco4)ncnc32)cc1,7%,8%
CC[C@@]1(C(=O)OC)N[C@H](CN(C)C(=O)c2ccc(F)cc2)[C@@H]2C(=O)N(Cc3ccccc3)C(=O)[C@@H]21,i,-20%
CC1CCCCN1C(=O)c1cc2c(=O)n3ccccc3nc2s1 (stereo not drawn),-7%,-4%
OC(c1ccccc1)c1nc(-c2ccc(F)c(Cl)c2)cs1 (stereo not drawn),32%[activator],-13%
CCCN(CCC)S(=O)(=O)c1ccc(Cl)c([N+](=O)[O-])c1,-10%,-16%
Cc1cccn2c(=O)c3cc(C#N)c(=N)n(CCN4CCOCC4)c3nc12,i,-5%
Cc1cc(C)n(CCNS(=O)(=O)c2ccc(C)c(C)c2)n1,-3%,-8%
Cc1cc(C(=O)CCC(=O)Nc2cccc(F)c2)c(C)s1,-1%,-14%
Cc1ccc(S(=O)(=O)/C(C#N)=C/c2c(N3CCN(C)CC3)nc3ccccn3c2=O)cc1,x,-9%
COc1cccc(CNC(=O)CN2C(=O)COc3ccc(S(=O)(=O)Nc4ccccc4)cc32)c1,-14%,-11%
CCOC(=O)c1sc(NC(=O)CN(CC)CC)c(C(=O)OCC)c1C,i,-11%
COC(=O)C1=C(c2cccc(OCc3ccccc3)c2)C[C@@H]2CC[C@H]1N2C(=O)NCc1ccc([N+](=O)[O-])cc1,-18%,-28%
Cc1c(NC(=O)CSC(=S)N2CCCC2)c(=O)n(-c2ccccc2)n1C,-14%,-7%
